Compound activity: PubChem, National Center for Advancing Translational Sciences (NCATS)
SARS PLP yeast: qHTS of Yeast-based Assay for SARS-CoV PLP; S. cerevisiae expressing SARS-CoV PLpro, growth rescue; control for the full effect not named in the record; Potency, µM (highest dose often 32.9 µM), inactives show at the top dose activity, positive = growth rescue; 330,000 tested, 0.19% active; active means well fitted rising curve with a large enough effect; inconclusive means small, poorly fitted or top-dose-only effect; inactive means no such curve, though single readings can be large or run the other way; note: 0% is about no effect; nearly all actives have a fitted effect of over 55% in size; growth read by luminescence after 48 h
LASV entry inh: qHTS for Inhibitors of binding or entry into cells for Lassa Virus | Lassa virus pseudotype entry inhibition, cell reporter; control for the full effect not named in the record | Potency, µM (top dose mostly 37.9 µM), for the others: at the top dose activity change, negative = inhibition, usual class: inhibitors | 300,000 tested, 1.2% active | AID 540256, 2011; active means well fitted inhibition curve with a large enough effect; inconclusive means small, poorly fitted or top-dose-only effect, or effect the other way; inactive means flat fitted curve, though single readings scatter; tested in HEK293 cells; note: % is set by controls: 0 for no effect and ±100 for the full control effect; nearly all actives have a fitted effect of over 50% in size; luciferase read-out
NS1 function inh: qHTS Assay for Inhibitors of Influenza NS1 Protein Function; Potency, µM (highest dose often 46.1 µM), for the others: top-dose activity, positive = more growth; 270,000 tested, 0.4% active; S. cerevisiae slowed by influenza A NS1, growth recovery by OD600; AID 2326, 2010; active means well fitted rising curve with a large enough effect; inconclusive means small, poorly fitted or top-dose-only effect; inactive means no such curve, though single readings can be large or run the other way; note: nearly all actives have a fitted effect of over 50% in size
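S. cerevisiae expressing influenza A NS1, grown in glucose, washed, then diluted 1:100 into pH 6.0 -URA galactose medium with 23 nl compound. Growth recovery read as OD600; NS1-free strain serves as control.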
2A StopGo: High Throughput Screening for Foot and Mouth Disease Virus Antivirals | human cells with a luciferase reporter of 2A StopGo recoding; control for the full effect not named in the record | Potency, µM (series often up to 57.9 µM), without a hit: top-dose signal change, negative = less light | 410,000 tested, 1.2% active | AID 1159524, 2015; active = well fitted falling curve with a large enough effect; inconclusive = small, poorly fitted or top-dose-only effect; inactive = no such curve, though single readings can be large or run the other way; tested in HEK293T cells; note: % is set by controls: 0 for no effect and ±100 for the full control effect; nearly all actives have a fitted effect of over 45% in size; luciferase light after 4 h
Cruzain Triton: qHTS Assay for Promiscuous and Specific Inhibitors of Cruzain (with detergent); 200,000 tested, 0.43% active; AID 1478, 2009; Potency, µM, for the others: max response, negative = inhibition, actives largely listed as inhibitors; Cruzipain (Trypanosoma cruzi), P25779; purified cruzain, Z-FR-AMC fluorescence, 0.01% Triton;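 note: plate controls were neutral wells for no effect and buffer without enzyme for full effect; nearly all actives have a fitted effect of over 40% in size; top concentration of the series not given in the record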
Target sequence (P25779 123-467 limits assumed): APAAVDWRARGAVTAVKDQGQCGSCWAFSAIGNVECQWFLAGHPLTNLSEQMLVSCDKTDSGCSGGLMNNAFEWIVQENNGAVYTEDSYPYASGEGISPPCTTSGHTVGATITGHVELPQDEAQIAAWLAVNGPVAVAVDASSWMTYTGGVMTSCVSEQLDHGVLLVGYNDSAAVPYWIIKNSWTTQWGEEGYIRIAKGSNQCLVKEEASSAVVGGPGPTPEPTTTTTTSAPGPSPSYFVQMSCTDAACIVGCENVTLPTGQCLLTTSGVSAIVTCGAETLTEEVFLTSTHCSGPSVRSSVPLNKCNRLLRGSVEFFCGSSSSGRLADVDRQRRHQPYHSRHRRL
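Cysteine protease activity tested under reducing, mildly acidic conditions (100 mM sodium acetate pH 5.5, 5 mM DTT) plus 0.01% Triton X-100. Cruzain 1.5 nM; substrate Z-FR-AMC 2 uM; 15 min compound preincubation at room temperature.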
RE007 growth inh: qHTS Assay for Inhibitors of the HIV-1 protein Vpr | Potency, µM (doses to about 92.2 µM), for inactives: top-dose activity change, negative = less growth | S. pombe RE007 Vpr strain, BacTiter-Glo ATP luminescence, 24 h; control for the full effect not named in the record | 360,000 tested, 0.21% active | AID 651644, 2012; active = well fitted falling curve with a large enough effect; inconclusive = small, poorly fitted or top-dose-only effect; inactive = no such curve, though single readings can be large or run the other way;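 note: % is set by controls: 0 for no effect and ±100 for the full control effect; nearly all actives have a fitted effect of over 50% in size; the assay follows cell death caused by Vpr and the record does not say whether a fall means rescue or toxicity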
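Fission yeast RE007 carrying one integrated HIV-1 vpr copy, seeded at OD 0.01 in PMG+AL medium with 23 nL pinned compound. Grown 24 h at 30 degrees; viability read by BacTiter-Glo luminescence after 5 min.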
MARV entry inh: qHTS for inhibitors of binding or entry into cells for Marburg Virus; Marburg virus pseudotyped entry inhibition, cell reporter; control for the full effect not named in the record; about a third of the inactives were read at about 46 µM; 300,000 tested, 1.8% active; Potency, µM (top dose mostly 37.8 µM), inactives show at the top dose activity change, negative = inhibition, usual class: inhibitors; active = well fitted inhibition curve with a large enough effect; inconclusive = small, poorly fitted or top-dose-only effect, or effect the other way; inactive = flat fitted curve, though single readings scatter; tested in HEK293 cells; about a fifth of its hits are not listed in these tables; note: % is set by controls: 0 for no effect and ±100 for the full control effect; luciferase read-out
Cruzain inh noDet: qHTS Assay for Promiscuous and Specific Inhibitors of Cruzain (without detergent). Cruzipain (Trypanosoma cruzi), P25779. purified cruzain, Z-FR-AMC fluorescence, no detergent. Potency, µM, inactives show max response, negative = inhibition, most hits filed as inhibitors. 200,000 tested, 2.3% active;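 note: plate controls were enzyme without inhibitor for no effect and buffer without enzyme for full effect; nearly all actives have a fitted effect of over 40% in size; top concentration of the series not given in the record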
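Detergent-free condition (0.00005% Triton X-100) in acetate buffer pH 5.5 with DTT. 1.5 nM enzyme and compound were pre-mixed 15 min, then 2 uM Z-FR-AMC substrate added; reaction progress from fluorescence change between first and third reads (60 s).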
* hit, by the source's call; ? = inconclusive; nt = no result given; & = joins results of further samples; [ ] = another dose, or the depositor's remark. Unless noted, calls come from the whole dose curve; as a rule, active = well fitted curve in the direction sought with a large enough effect; inconclusive = small, poorly fitted or top-dose-only effect, or another doubt; inactive = no such curve, though single readings can be large; an effect the other way counts as inactive or inconclusive. Potency is the fitted concentration of half-maximal effect. Hits appear at their usual frequency (roughly 4.8% active in at least one column).

SMILES,SARS PLP yeast,LASV entry inh,NS1 function inh,2A StopGo,Cruzain Triton,RE007 growth inh,MARV entry inh,Cruzain inh noDet
CCc1nnc(NC(=O)CSc2nnc(-c3cccnc3)n2CCc2ccccc2)s1,3%,14%,0%,14%,10%,10%,-5%,6%
COc1cccc(CNC(=O)COc2cc(O)c3c(c2)OC(C)(C)CC3=O)c1,-4%,nt,-24%,-16%,nt,4%,nt,nt
CCOCCn1c(CN2CCN(CCO)CC2)nc2c1c(=O)n(C)c(=O)n2C,-11%,nt,-7%,-24%,nt,2%,nt,nt
COc1cc(C)c(S(=O)(=O)n2c([N+](=O)[O-])cnc2C)cc1C,16%,?,4%,2%,nt,-3%,-13%,nt
Cc1c(Br)c([N+](=O)[O-])nn1C(C)C(=O)NCc1cccs1 (stereo not given),2%,3%,?,nt,2.3%,-7%,-18%,-1%
Cc1cccc(Nc2nnc(SCC(=O)NCC3CCCO3)s2)c1 (stereo not given),-14%,13%,nt,20%,nt,-13%,-26%,nt
COc1ccc(CCSc2nnc(C3CCCCC3)n2N)cc1,-12%,?,-22%,-23%,2.2%,-10%,2%,5%
COc1cccc(C(=O)NNC(=S)NC2CCCCC2)c1,3%,?,0%,63%[activator],4.0%,-15%,7%,4%
O=C(CSCc1cnn(-c2ccccc2)c1-n1cccc1)NCc1cccnc1,13%,?,-2%,-24%,nt,2%,9%[46.1 µM],nt
Cn1c(=O)[nH]c(=O)c2c1nc(NC1CCCCC1)n2Cc1ccccc1,1%,-25%,-6%,-21%,-1.2%,2%,?,-3%
COCc1ccc(CN2CCC(C(=O)Nc3cccc(-c4cccc(Cl)c4)c3)CC2)o1,-3%,?,-13%,?,nt,17%,?,nt
O=C(CCCn1ncn2c(cc3occc32)c1=O)NCc1ccccc1F,5%,-17%[46.1 µM],-2%,-1%&-2%,-2.7%,3%,-16%&-16%[46.1 µM],17%
Cc1ccc(OC(=O)c2cc(C)nn2C(C)(C)C)cc1,1%,nt,3%,-2%,nt,-7%,nt,nt
O=C(Nc1ccc(S(=O)(=O)NCCc2ccccc2)cc1)c1ccco1,4%,-18%,-10%,66%[activator],-7.7%,-13%,12%,-14%
Cc1ccc(N(C)C(=O)N2CCN(S(=O)(=O)c3ccc4ccccc4c3)CC2)cc1,7%,?,0%,-12%,-6.4%,-5%,?,12%
O=C(COC(=O)/C=C/c1ccc2ccccc2n1)NNC(=O)c1ccc([N+](=O)[O-])cc1,7%,0%,nt,14%,nt,-9%,7%,nt
CCN(CC)S(=O)(=O)c1cccc(C(=O)Nc2ccc(S(=O)(=O)NC3=NCCCCC3)cc2)c1,-1%,-10%[46.1 µM],nt,?,nt,5%,-27%,nt
Cc1ccc(Cl)cc1N1CCN(C(=O)Cc2cn(C)c3ccccc23)CC1,-24%,?,13%,?,-8.4%,17%,?,?
CSc1nc(N)c(NC(=O)c2ccc(Br)o2)c(=O)[nH]1,0%,8%,3%,9%,nt,-2%,13%,nt
O=C(CN(c1ccc(Cl)c(C(F)(F)F)c1)S(=O)(=O)c1ccccc1)N1CCOCC1,1%,-18%,-7%,21%,5.5%,12%,-14%,?
Cc1ccc(N2C(=O)NC(NS(=O)(=O)c3ccccc3)(C(F)(F)F)C2=O)cc1 (stereo not given),-17%,1%[46.1 µM],15%,7%,nt,8%,12%[46.1 µM],nt
COc1ccc(Cn2c(=N)c(C(=O)NC3CCCCC3)cc3c(=O)n4ccccc4nc32)cc1,0%,nt,-13%,10%,nt,6%,nt,nt
Cc1cc(C)cc(C(=O)NCCC(=O)N2CCC3(CC2)NCCc2[nH]cnc23)c1,0%,nt,-2%,4%,nt,-8%,nt,nt
O=C(c1ccc(NC(=O)C(c2ccccc2)c2ccccc2)cc1)c1ccc(C(=O)O)c(C(=O)O)c1,1%,14%,?,9%,nt,-8%,2%,nt
COc1ccc(NC(=S)N(CCc2c(C)[nH]c3ccc(C)cc23)Cc2ccco2)cc1,-11%,?,15%,-12%,-5.1%,0%,?,?
Cc1ccc(S(=O)(=O)N2CCCCC2C(=O)N2CCN(Cc3ccccc3)CC2)cc1 (stereo not given),2%,?,-11%,?,0.2%,-12%,-31%,-3%
Cn1nc(-c2ccc(Cl)cc2)c2cc(C(=O)N3CCOCC3)sc21,-2%,nt,-43%,-27%,-3.3%,-15%,nt,?
CCC1=NN(C(=O)C(=O)Nc2ccccc2OC)C(O)(C(F)(F)F)C1 (stereo not given),8%,10%,?,nt,2.7%,-12%,-15%,10%
O=C(O)C1OC(Oc2cc3oc(-c4ccccc4)cc(=O)c3c(O)c2O)C(O)C(O)C1O (stereo not given),-15%,9%,26%,56%[activator],-6.4%,-8%,?,-7%
Cn1cnc2c(=O)oc3ccc(S(=O)(=O)N4CCN(c5ccccc5)CC4)cc3c21,nt,4%[46.1 µM],nt,-17%,1.1%,nt,5%[46.1 µM],18%
CC(C)(C)C1CCc2c(sc(NC(=O)c3cccc(Cl)c3)c2C(=O)NCc2ccco2)C1 (stereo not given),nt,16%[46.1 µM],nt,0%,-1.2%,nt,-1%[46.1 µM],5%
COc1cccc(-n2nnc3c(=O)n(CC(=O)N4CCC(C)CC4)cnc32)c1,9%,4%,-2%,nt,-1.8%,-5%,-18%,-9%
Cc1ccc(Sc2ccc(CO)cc2[N+](=O)[O-])cc1,-18%,1%,nt,-16%,nt,14%,17%[46.1 µM],nt
CCO[C@H]1OC(C(=O)NCc2nc3ccccc3[nH]2)=C[C@@H](c2ccccc2)[C@@H]1CCCO,0%,nt,-9%,-18%,nt,3%,nt,nt
O=[N+]([O-])c1ccc2c(c1)nnn2-c1ccccc1,-5%,26%[46.1 µM],-11%,13%,nt,10%,?,nt
O=c1[nH]c(=O)n(CCC2=CCCCC2)c(O)c1/C=N/Nc1cccc2ccccc12,-1%,nt,12%,?,nt,2%,nt,nt
CCCC(=O)N1c2ccccc2C(N(C(C)=O)c2ccccc2)CC1C (stereo not given),7%,?,4%,-13%,-0.3%,16%,-9%,9%
CCCCN(C)CCn1c(=S)[nH]c2ccc(N3CCOCC3)cc2c1=O,0%,-20%,?,-19%,-7.0%,-6%,?,-11%
COc1ccc(N=c2scc(-c3ccc(OC)cc3)n2CCO)cc1,0%,?,-11%,-2%,-2.7%,0%,-29%,8%
O=C1CSC(=S)N1CC1CCCO1 (stereo not given),1%,-17%,4%,nt,2.6%,-23%,-23%,-5%
Cc1ccc(/C=N/NC(=O)CNC(=O)c2ccc(C)c([N+](=O)[O-])c2)o1,-1%,11%,-4%,-16%,nt,25%,9%,nt
CC(C)COc1ccc(C(=O)OCC(=O)N(C)CC(=O)Nc2ccc(F)cc2)cc1,-2%,?,nt,-4%,nt,1%,1%,nt
COc1ccc2ccccc2c1CNC(C)c1ccccc1 (stereo not given),1%,nt,-41%,-17%,nt,-11%,nt,nt
CCCCN(CCCC)CCNC(=O)Cn1nc(CC)n2c(cc3sc(C)cc32)c1=O,nt,nt,nt,-11%,-1.7%,nt,-6%[46.1 µM],-4%
Cc1ccc(N2CCN(/N=C/C(Cl)=C/c3ccccc3)CC2)cc1,0%,2%[46.1 µM],nt,-10%,nt,-14%,8%[46.1 µM],nt
CC1(c2cnc(Nc3ccccc3)s2)CCC(=O)O1 (stereo not given),nt,4%,?,17%,-0.5%,11%,-10%[46.1 µM],-5%
CC(Oc1ccc(F)cc1)C(=O)Nc1cc(S(=O)(=O)N2CCOCC2)ccc1N1CCCCC1 (stereo not given),3%,?,nt,-23%,nt,-7%,?,nt
Cc1c(-c2cccc(NC(=O)C(C)(C)C)c2)nc2ncccn12,nt,-6%[46.1 µM],nt,-14%,-10%,nt,nt,-7%
N/C(=N\OS(=O)(=O)c1ccc(Cl)cc1)c1cccnc1,-8%,0%,2%,-16%,-4.0%,3%,21%,-15%
Cc1ccc(-n2cc(CNC(C)Cn3cncn3)c(-c3ccc(F)cc3)n2)cc1 (stereo not given),-2%,-15%,-5%,11%,nt,-17%,?,nt
Cc1ccc(SCCNS(=O)(=O)c2ccc(F)cc2)cc1,-21%,-17%,-35%,36%[activator],-0.4%,0%,18%,-6%
CCCS(=O)(=O)n1nc(-c2ccc(Br)cc2)cc1N,-2%,5%,18%,-8%,-2.9%,-2%,1%,-11%
Clc1cccc(Cl)c1-c1noc(CN2CCOCC2)n1,0%,nt,3%,-7%,nt,-13%,nt,nt
Cc1ccc(C)c(Oc2nnnn2-c2ccccc2)c1,1%,-19%,-7%,14%,-5.2%,-15%,4%,-13%
O=c1oc2ccccc2c(Nc2ccc(F)cc2)c1[N+](=O)[O-],4%,-25%,nt,-2%,nt,7%,-21%,nt
COc1cc(NC(=O)c2cc(C)no2)c(OC)cc1Cl,-1%,nt,-2%,-17%,nt,-6%,8%,nt
CCOc1cc(C#N)c(NC(=O)Cn2nnc(-c3ccc(C)cc3)n2)cc1OCC,nt,24%[46.1 µM],nt,-3%,0.4%,nt,-7%[46.1 µM],12%
CC(C)(C)C1CCc2c(sc3nc(-c4cc5ccccc5oc4=O)[nH]c(=O)c23)C1 (stereo not given),nt,3%[46.1 µM],nt,-9%,0.6%,nt,nt,21%
COc1ccc(C)cc1NC(=O)c1cnc2sccn2c1=O,0%,nt,-8%,nt,1.0%,nt,-6%,0%
O=C(CSc1nc(=O)n(Cc2cccnc2)c2c1CCC2)Nc1ccc(F)cc1F,nt,6%[46.1 µM],nt,22%,-5.0%,nt,nt,-1%
